# D2 potentiator = positive allosteric modulators of human D2 dopamine receptor. DiscoveRx D2 beta-arrestin cells, luminescence, 90 min; 100% = 57 uM dopamine signal. potentiation, % (no concentration beside the values). 0.23% of 360,000 active. AID 624464; active = potentiation of 50% or more; inconclusive = 30% to 50%; inactive = 30% or less;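 further: compound concentration not given in the record; tested on top of an EC20 dose of dopamine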
#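 D2 cells co-treated with compound plus 50 nM dopamine (EC20) for 90 min at 37 deg C to detect potentiation. Beta-arrestin recruitment was read as enzyme-fragment luminescence after 1 h at ambient temperature. Full response was set by 57 uM dopamine.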
# gsp antag = antagonists of gsp mutant (McCune-Albright syndrome) | gsp-mutant cells, cAMP HTRF, 30 min; control for the full effect not named in the record | Potency, µM (series often up to 76.9 µM), for the others: at the top dose activity change, negative = inhibition, usual class: inhibitors | 0.4% of 340,000 active; active = falling curve of any shape with a large fitted effect; inconclusive = falling curve, mostly with a smaller effect; inactive = flat or rising curve; cell line not stated here;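 further: intracellular cAMP measured with PDE inhibitor Ro 20-1724 present during compound exposure; potency means the concentration at half of the fitted maximal effect; on the % scale 0 is the no-effect control and ±100 the full control effect; nearly all actives have a fitted effect of over 65% in size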
#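 HTRF cAMP read-out (cAMP-d2 plus anti-cAMP antibody-K in lysis buffer, 30 min RT). Before lysis, cells are exposed to compounds with […] for 30 min at 37C in DPBS containing Ca/Mg, BSA and Tween 20.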
# D2 agonist = human D2 receptor agonism in beta-arrestin assay; 0.084% of 360,000 active; AID 624465; P14416; activation, % (no concentration beside the values); DiscoveRx PathHunter D2 beta-arrestin, luminescence, 90 min; 100% = 57 uM dopamine signal; in the data active = activation above about 40%; inconclusive = about 15% to 40%; inactive = below about 15%; further: compound concentration not given in the record; the text of the record calls up to 30% inactive
#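 DiscoveRx PathHunter D2 beta-arrestin cells (2,100/well) attached overnight, then compound-stimulated 90 min at 37 C in HBSS/10 mM HEPES/0.1% Tween-20 buffer; beta-galactosidase complementation read by luminescence after 1 h at ambient temperature. Dopamine 57 uM final (EC100) as control.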
# Six1-Eya2 blk = Six1/Eya2 interaction inhibition; Q15475+O00167; 0.56% of 360,000 active; activity change, % (no concentration beside the values); AID 651725; AlphaScreen GST-Six1/His-Eya2 binding, biochemical; active compounds read low; control for the full effect not named in the record; in the data active = activity change below about -65%; inconclusive = about -30% to -65%; inactive = above about -30%; further: on the % scale 0 is the no-effect control and ±100 the full control effect
# Target sequence (O00167 whole entry, looked up): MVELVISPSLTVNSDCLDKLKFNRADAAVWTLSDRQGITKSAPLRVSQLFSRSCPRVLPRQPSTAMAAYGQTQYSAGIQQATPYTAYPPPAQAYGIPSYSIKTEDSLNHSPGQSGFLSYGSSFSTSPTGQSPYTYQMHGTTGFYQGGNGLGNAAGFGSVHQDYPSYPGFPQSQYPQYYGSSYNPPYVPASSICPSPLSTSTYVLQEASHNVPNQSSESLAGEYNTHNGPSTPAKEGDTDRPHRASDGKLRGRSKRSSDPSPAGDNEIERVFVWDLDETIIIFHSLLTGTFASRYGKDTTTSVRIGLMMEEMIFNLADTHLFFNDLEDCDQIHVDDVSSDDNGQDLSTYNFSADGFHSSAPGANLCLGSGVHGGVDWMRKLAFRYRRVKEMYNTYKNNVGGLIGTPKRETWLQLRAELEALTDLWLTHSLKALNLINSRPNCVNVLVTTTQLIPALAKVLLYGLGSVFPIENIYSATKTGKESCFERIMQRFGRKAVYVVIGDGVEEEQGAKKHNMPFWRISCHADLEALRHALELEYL
# Target sequence (Q15475 whole entry, looked up): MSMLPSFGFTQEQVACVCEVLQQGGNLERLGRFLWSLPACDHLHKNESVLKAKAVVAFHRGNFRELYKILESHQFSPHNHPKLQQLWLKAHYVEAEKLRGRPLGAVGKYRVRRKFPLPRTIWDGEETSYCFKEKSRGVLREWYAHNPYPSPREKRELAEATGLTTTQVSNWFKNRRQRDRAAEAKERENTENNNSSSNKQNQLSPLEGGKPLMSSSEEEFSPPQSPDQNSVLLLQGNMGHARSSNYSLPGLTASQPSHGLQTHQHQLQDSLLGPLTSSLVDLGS
#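 AlphaScreen luminescence read after one hour at 37 °C in darkness. Pin-transferred compounds met GST-Six1 and His-Eya2 protein (5X stock 250 nM/500 nM) plus glutathione donor and Ni-chelate acceptor beads (5X, 50 ug/mL).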
# CtBP-E1A inh = blocks the CtBP interaction with E1A. AlphaScreen GST-E1A/His-CtBP binding, 1536-well; active compounds read low; control for the full effect not named in the record. activity change, % (test concentration not listed). 0.49% of 340,000 active; in the data active means activity change below about -65%; inconclusive means about -30% to -65%; inactive means above about -30%; further: on the % scale 0 is the no-effect control and ±100 the full control effect
#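 Protein mix (5X: 125 nM each GST-E1A, His-CtBP) was incubated with pinned compound 2 h at 37 deg C in dark, in 50 mM Tris pH 8.0 buffer with 300 mM NaCl. Glutathione donor and nickel acceptor beads followed; AlphaScreen signal read after 1 h.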
# gsp agonist = activates gsp, the McCune-Albright syndrome mutation; gsp mutant cells, cAMP HTRF, 30 min; control for the full effect not named in the record; 0.13% of 340,000 active; Potency, µM (doses to about 76.9 µM), for the others: top-dose activation (cAMP increase), hits mostly activators; AID 624287; active = well fitted activation curve with a large enough effect; inconclusive = small, poorly fitted or top-dose-only effect, or another doubt; inactive = no such curve, though single readings can be large or run the other way; cell line not stated here;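 further: phosphodiesterase inhibitor Ro 20-1724 added with compounds to block cAMP breakdown; potency means the concentration at half of the fitted maximal effect; nearly all actives have a fitted effect of over 60% in size; about a fifth of the inactives were tested at one dose only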
#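 Cells in DMEM/10% FBS with G418 were pretreated with compounds in DMSO plus […] (300 uM stock) for 30 min at 37C. cAMP was measured by HTRF (cAMP-d2 plus anti-cAMP antibody-K) after 30 min at room temperature.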
# Starred values were filed as active, the others as inactive; ? = inconclusive; · = not tested or not shown; [ ] = dose if it differs, or a comment. The order is random. About 1.4% of those tested had a hit in this group.
cpd	gsp agonist	gsp antag	D2 potentiator	D2 agonist	CtBP-E1A inh	Six1-Eya2 blk	SMILES
1	-4%	-5%	-7	-3.3	0	-6	CCN1CCN(CCC(=O)Nc2ccc(Br)cc2)CC1
2	-45%[inhibitor]	14%	12	-0.5	-2	-4	CCOc1ccc(OCC(=O)Nc2ccc(N3CCCCC3)cc2)cc1
3	7%	0%	-14	1.4	-3	-4	CSc1ccc(/C=N/NC(=O)c2cccc(Cl)c2)cc1
4	23%	11%	-3	-3.5	·	8	O=C(CCNC(=O)c1ccc(Br)cc1)NCCCN1CCOCC1
5	-17%[15.4 µM]	9%	-5	3.0	-3	8	Cc1ccc(NC(=O)CNC(=O)COc2ccccc2)nc1
6	-4%[15.4 µM]	-3%	-5	-3.8	-2	-4	Cc1cc(C)c(C(=O)COC(=O)CN2C(=O)NC3(CCCC3)C2=O)cc1C
7	6%	-5%	-3	-2.2	3	5	Cc1ccc(CSc2nnc(-c3ccc4c(c3)OCO4)o2)cc1
8	3%	3%	-29	-2.6	·	0	Cc1cc(-c2csc(NC(=O)c3ccc(=O)[nH]c3)n2)c(C)n1Cc1ccccc1
9	20%	8%	3	-0.5	-14	-24	N#Cc1nc(-c2cccs2)oc1NCc1ccc(Cl)cc1
10	·	·	5	3.6	1	-25	Cc1noc(C)c1-c1ccc(C(=O)Nc2cccc(C(F)(F)F)c2)c2occc12
11	-1%	10%	-4	-5.6	10	5	NS(=O)(=O)c1ccc(NC(=O)c2ccccc2C(=O)N2CCCCC2)cc1
12	15%	-4%	5	0.0	6	3	C/C(=N/OC(=O)c1ccc(C)cc1)c1ccc(N2C(=O)C3CCCCC3C2=O)cc1 (configuration not stated)
13	-33%[inhibitor]	2%[15.4 µM]	-9	-3.0	2	18	CN=C1SC(CC(=O)Nc2ccc(C(C)=O)cc2)C(=O)N1C (configuration not stated)
14	?	3%	3	-5.3	4	5	O=C(CCC1CCCN(C(=O)Cn2cnnn2)C1)NCc1ccccc1F (configuration not stated)
15	-10%	13%	-15	-6.0	2	2	CCOCC(O)CNc1ccccc1 (configuration not stated)
16	-41%[inhibitor]	0%	-2	-3.4	4	1	O=C(Nc1ccccc1)OCCN1CCOCC1
17	18%[15.4 µM]	11%	0	-5.4	3	7	CC(C)(C)NC(=O)/C(=C/c1ccccc1F)NC(=O)c1ccc([N+](=O)[O-])cc1
18	?	11%	-1	-4.6	-7	3	CN(Cc1ncc[nH]1)C(=O)c1cc(COc2c(F)cccc2F)on1
19	19%	6%	2	4.9	3	1	Cc1cccc(OCC(=O)NCCCNC(=O)c2ccccn2)c1
20	?	8%	8	6.4	2	-1	Cc1ccc(S(=O)(=O)NC(CC(=O)O)c2cccs2)cc1 (configuration not stated)
21	-3%	-2%	-12	3.0	-5	-10	Cc1cccc(C)c1N1CCN(C(=O)Nc2ccc3c(c2)OCCO3)CC1
22	·	·	-1	-4.1	-18	8	CC1(C(=O)NS(=O)(=O)c2cccc(C#N)c2)CCN1C(=O)c1cccc2ccccc12 (configuration not stated)
23	1%[15.4 µM]	5%	-20	-3.3	6	1	CCN(CC)CCN1C(=O)c2ccccc2NC1c1ccc(Br)cc1 (configuration not stated)
24	-10%	3%	-3	4.8	4	5	C[C@H](NC(=O)c1ccco1)C(=O)NC1CCCCCC1
25	23%	1%	24	-0.7	·	0	CCOC(=O)C1(C)NC(c2ccc(O)cc2)C2C(=O)N(c3ccccc3)C(=O)C21 (configuration not stated)

# Continued:
cpd	gsp agonist	gsp antag	D2 potentiator	D2 agonist	CtBP-E1A inh	Six1-Eya2 blk	SMILES
26	18%	-12%	0	0.1	·	7	CC1CCCC(NC(=O)COC(=O)c2cc(S(=O)(=O)N3CCOCC3)ccc2F)C1C (configuration not stated)
27	-1%	?	-2	-0.3	-23	6	O=C1C2ON(c3ccccc3)C(c3ccncc3)C2C(=O)N1c1ccc(N2CCOCC2)cc1 (configuration not stated)
28	-4%[15.4 µM]	2%	-14	-5.8	0	-10	CN(CC(=O)Nc1cccc(F)c1)C(=O)CCc1nc2ccccc2c(=O)[nH]1
29	0%	-15%	-6	-2.8	-8	-2	CCCCNC(=O)Cn1c2c(c(-c3ccccc3Cl)cc1=O)CCC2
30	-4%	2%	-7	-4.8	-4	-1	CS(=O)(=O)N(CC(=O)Nc1cccc(Cl)c1Cl)c1ccccc1
31	12%	5%	-14	0.6	1	7	c1ccc2[nH]c(NCc3ccc4c(c3)OCO4)nc2c1
32	22%	-8%	3	-0.8	2	-4	O=C1NC2(CCCc3ccccc32)C(=O)N1CCOc1ccc(Br)cc1 (configuration not stated)
33	0%[15.4 µM]	9%	1	6.1	6	-1	CCn1nccc1C(=O)Nc1ccccc1OC
34	-3%	-5%	6	-1.7	1	2	CCOC(=O)c1ccc(NC(=O)COC)cc1
35	-1%	15%	-2	0.1	-6	-9	COc1ccc(-c2nc(C#N)c(NCC3CCCO3)o2)cc1OC (configuration not stated)
36	?	4%	-13	-4.2	6	6	Cc1ccc(C)c(NC(=O)C(Sc2nncn2C)c2ccccc2)c1 (configuration not stated)
37	-4%	6%	-16	-2.1	12	-1	CCc1ccc(CN2CCC(CO)(CC3CCCCO3)CC2)o1 (configuration not stated)
38	-4%[15.4 µM]	8%	-10	-4.7	6	5	O=C(Nc1ccc(F)cc1F)N1CCCN(c2ccc([N+](=O)[O-])cn2)CC1
39	-6%	-3%	1	0.7	-5	-5	CCN(CC(=O)Nc1c(F)cccc1F)C(=O)/C=C/c1cn(Cc2ccccc2)nc1-c1cccnc1
40	0%	5%	-12	-2.9	-13	-6	Cc1cc(NC(=O)CSc2nnc3c(C)cc4ccccc4n23)no1
41	20%	5%	-10	-2.6	3	2	Cc1cc(NC(=O)C2CC(=O)OC2c2ccccc2)no1 (configuration not stated)
42	-1%[15.4 µM]	10%	-3	4.8	·	-4	COc1ccc(N2CC(C(=O)Nc3ccc(S(=O)(=O)Nc4nccs4)cc3)CC2=O)cc1 (configuration not stated)
43	-28%	-14%	-3	-0.8	0	-2	CCCCCCCNC(=O)C1(CC2CC(c3ccc(Cl)cc3)=NO2)CCN(C(=O)Cc2ccc(F)cc2)CC1 (configuration not stated)
44	-64%[inhibitor]	11%	-1	-3.0	14	7	O=c1nc(-c2ccccc2)n(-c2ccccc2)c2ncccc12
45	5%[15.4 µM]	6%	-5	-0.9	4	1	CCc1cc(=O)[nH]c(SCC(=O)N2CCCC2)n1
46	?	?	-2	-2.8	-10	-11	Cc1cccc(NCC(=O)N/N=C\c2cccc(Oc3ccccc3)c2)c1
47	14%	-2%	-7	-4.9	1	0	CN(C(=O)CSc1nc2c(c(=O)[nH]1)CCCC2)C1CCCCC1
48	6%	6%	-8	-1.4	1	-3	CN1CCN(NC(=O)c2ccc(Br)c(S(=O)(=O)N3CCOCC3)c2)CC1
49	26%	1%	-9	-1.4	6	1	O=C1c2cccc3cccc(c23)C(=O)N1c1nccs1
50	?	1%	-55	-4.4	·	-15	Cc1c(C)n(Cc2ccccc2)c2ncnc(NCCN(C)C)c12

# (cont.)
cpd	gsp agonist	gsp antag	D2 potentiator	D2 agonist	CtBP-E1A inh	Six1-Eya2 blk	SMILES
51	5%	8%	-12	-0.6	-4	3	O=C(CSc1nc2ccccc2o1)N1CCN(C(=O)c2ccco2)CC1
52	-34%	-7%	-8	-0.2	-3	-11	O=C(NCCc1ccccc1)C(=O)c1c(-c2ccccc2)[nH]c2ccccc12
53	-20%	-9%	-13	2.4	5	6	COc1ccc(S(=O)(=O)N2CCN(CC(=O)Nc3ccc(F)c(F)c3)CC2)cc1
54	9%	1%	-4	-6.3	-3	0	CCN(CC)C(=O)c1ccc(CS(=O)(=O)Cc2ccccc2)cc1
55	?	-11%	-6	2.8	·	0	CCOC(=O)c1c(S(=O)(=O)NCC(=O)N2CCN(c3ccccc3OC)CC2)c(C)n(C)c1C
56	-5%[15.4 µM]	-5%	-3	-2.1	-1	-10	Cc1onc(-c2c(Cl)cccc2Cl)c1C(=O)O/N=C(\C#N)c1ccccc1
57	?	-20%	-4	2.3	-6	-4	O=C(Nc1nnc(S(=O)(=O)N2CCOCC2)s1)c1ccccc1Cl
58	?	-1%	2	5.4	·	-9	Cn1c(=O)c2c(ncn2CCc2ccccc2)n(C)c1=O
59	·	·	-3	-2.4	9	0	CCOC(=O)C1(C)CCCN1C(=O)c1ccc(C(=O)OC)cc1 (configuration not stated)
60	19%	-31%	-7	2.9	-5	-20	Cc1c(-c2n[nH]c(=S)n2-c2ccc(Br)cc2)nnn1-c1ccc(Cl)cc1
61	·	·	2	2.4	-13	-16	Cc1ccc(S(=O)(=O)NC(=O)C2(C)CCN2C(=O)C2(c3ccc(Cl)cc3)CCC2)nc1 (configuration not stated)
62	-30%	6%	5	-2.9	-23	-30	COc1ccc(-c2ccc(SCC(=O)NCc3ccco3)nn2)cc1OC
63	17%	-4%	-4	1.1	-1	3	CCOC(=O)N1CCN(C(=O)CN(C)S(=O)(=O)c2ccc3c(c2)C(C)(C)C(=O)N3C)CC1

# Copied from the entries so far for reference:
cpd	gsp agonist	gsp antag	D2 potentiator	D2 agonist	CtBP-E1A inh	Six1-Eya2 blk	SMILES
48	6%	6%	-8	-1.4	1	-3	CN1CCN(NC(=O)c2ccc(Br)c(S(=O)(=O)N3CCOCC3)c2)CC1
49	26%	1%	-9	-1.4	6	1	O=C1c2cccc3cccc(c23)C(=O)N1c1nccs1
50	?	1%	-55	-4.4	·	-15	Cc1c(C)n(Cc2ccccc2)c2ncnc(NCCN(C)C)c12
51	5%	8%	-12	-0.6	-4	3	O=C(CSc1nc2ccccc2o1)N1CCN(C(=O)c2ccco2)CC1
52	-34%	-7%	-8	-0.2	-3	-11	O=C(NCCc1ccccc1)C(=O)c1c(-c2ccccc2)[nH]c2ccccc12
53	-20%	-9%	-13	2.4	5	6	COc1ccc(S(=O)(=O)N2CCN(CC(=O)Nc3ccc(F)c(F)c3)CC2)cc1
54	9%	1%	-4	-6.3	-3	0	CCN(CC)C(=O)c1ccc(CS(=O)(=O)Cc2ccccc2)cc1
55	?	-11%	-6	2.8	·	0	CCOC(=O)c1c(S(=O)(=O)NCC(=O)N2CCN(c3ccccc3OC)CC2)c(C)n(C)c1C
56	-5%[15.4 µM]	-5%	-3	-2.1	-1	-10	Cc1onc(-c2c(Cl)cccc2Cl)c1C(=O)O/N=C(\C#N)c1ccccc1
57	?	-20%	-4	2.3	-6	-4	O=C(Nc1nnc(S(=O)(=O)N2CCOCC2)s1)c1ccccc1Cl
58	?	-1%	2	5.4	·	-9	Cn1c(=O)c2c(ncn2CCc2ccccc2)n(C)c1=O
59	·	·	-3	-2.4	9	0	CCOC(=O)C1(C)CCCN1C(=O)c1ccc(C(=O)OC)cc1 (configuration not stated)
60	19%	-31%	-7	2.9	-5	-20	Cc1c(-c2n[nH]c(=S)n2-c2ccc(Br)cc2)nnn1-c1ccc(Cl)cc1

# Screening results: PubChem, National Center for Advancing Translational Sciences (NCATS)
